Assay outcomes deposited in PubChem by several laboratories.
Sa RN4220 lethal = growth inhibition of S. aureus RN4220, primary screen, OD600; 16 h; inhibition, % (test concentration not listed); hit rate 0.33% among 330,000;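 active means z-score of -3 or lower and OD600 up to 0.18 on both plates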;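 further: plate controls were untreated cells for no effect and reference antibiotic for full effect; stock transfer was 100 nL into about 80 µL; one replicate is shown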
PrP UTR inh = inhibition of PrP 5' UTR reporter expression | cell-based PrP 5' UTR mRNA reporter, plate reader | inhibition, % (concentration not given with the values) | hit rate 0.35% among 340,000 | AID 488862, 2010;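 active means every replicate at 50% or more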;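 further: 0 = median of the neutral control wells; tested in H4 reporter cells; numbers are from one replicate; inactives centre near -14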
Autofluor counter = flagged as autofluorescent in microsphere protease counterscreen; fluorescence intensity (concentration not given with the values); compound autofluorescence counterscreen, microsphere flow cytometry; active compounds read high; hit rate 3.1% among 360,000;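 active means at least 3 SD above the mean of all compounds, about 16000 in these data; inconclusive means too few beads counted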;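 further: 100 nL of 1 mM stock went into each well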
Sa ugtP lethal = growth inhibition of ugtP-null S. aureus, primary screen, RN4220 ugtP deletion, OD600 | 16 h; some inactives read as strong as hits | growth inhibition, % (no concentration beside the values) | hit rate 0.54% among 330,000 | AID 1259309, 2017;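 active means z-score under -3 and OD600 up to 0.15 on both plates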;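 further: plate controls were untreated wells for no effect and antibiotic for full effect; wells of about 80 µL received 100 nL stock; the first replicate is given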
Mtb hypoxia rep = PubChem AID 1159583; M. tuberculosis hypoxia-regulated fluorescent reporter, fluorescence; fluorescence inhibition, % (no concentration beside the values); hit rate 0.1% among 300,000;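 active means 35 to 45% if threefold the growth effect, above 45% if 1.5-fold the growth effect; inactive means the rest, general growth blockers included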;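 further: wells of about 50 µL received 100 nL stock; 0% = vehicle wells and 100% = reference inhibitor wells; whole bacteria with a GFP reporter of the hypoxia response; strong numbers were not always called active; many hits fall short of the cut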
BJeLR viability = MLPCN primary cell-based screen for lethality selective to Ras in HRASV12 cells; BJeLR (HRASV12) viability, CellTiter-Glo ATP luminescence, 48 h; reference of the scale not given here; inhibition, % (test concentration not listed); hit rate 0.17% among 300,000; AID 1554, 2009;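 active means replicate mean above 50%; inconclusive means above 50% but judged a plate artefact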;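 further: 50 nL library stock added to about 25 µL; numbers are from one replicate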
Mtb hypoxia rep growth = recorded beside Mtb hypoxia rep, whose call it bears; growth inhibition, %; measured here: M. tuberculosis growth (absorbance);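 0% = vehicle and 100% = reference antibiotic; read after six days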
* marks the source's active call; other numbers are inactive results; ? = inconclusive; . = not tested or not shown.

SMILES	Sa RN4220 lethal	PrP UTR inh	Autofluor counter	Sa ugtP lethal	Mtb hypoxia rep	Mtb hypoxia rep growth	BJeLR viability
CC1CCN(c2cc(=O)n(C3CCCCC3)c(=O)[nH]2)CC1	-1.3	-15	5195	4	6	7	-8
COc1cc(O)c(/C=N/NC(=O)c2ccncc2)c(OC)c1[N+](=O)[O-]	.	-35	4004	.	.	.	-9
COc1cc2c(C(=O)OCCN(C)C)c(CSc3ccccc3)n(C)c2cc1Br	-11	-20	4035	3	13	10	-3
CCOC(=O)C1Oc2ccccc2C(c2ccoc2)=C1C(=O)OC (stereo unspecified)	0.3	-11	3662	-5	-5	0	.
Cc1cc(C)nc(N2CCN(c3nc(-c4ccccc4)nc4c3oc3ccccc34)CC2)n1	2.2	-8	3568	7	5	14	.
CCNc1ccc(Br)cc(C(=O)/C=C/c2ccc(Cl)cc2Cl)c1=O	-0.3	-58	17500*	8	8	7	3
COCCNC(=O)/C(C#N)=C/c1ccc(OCc2ccccc2)cc1	7.8	-43	5142	-4	9	0	-5
Cc1ccc(OCC(=O)Nc2ccccc2F)cc1C	4.1	-79	3268	6	5	0	2
CN(c1ccccc1)S(=O)(=O)c1ccc(NC(=S)Nc2ccccc2)cc1	1.6	-49	9842	-14	0	6	-2
CC(=O)Nc1ccc(CN2CCc3c([nH]c4ccccc34)C2C(C)(C)C)cc1 (stereo unspecified)	-1.0	-20	3423	-7	-11	3	13
O=C(NCCN1CCOCC1)C1CCN(S(=O)(=O)N2CCCCC2)CC1	5.3	-20	7509	11	5	2	4
CCOC(=O)C1=C(c2ccccc2)N=c2sc(=Cc3cccc(O)c3)c(=O)n2C1c1cccs1 (stereo unspecified)	-9.9	.	.	15	2	0	.
O=C(Nc1cccc(C(F)(F)F)c1)/C(=C\c1ccco1)NC(=O)c1cccs1	14	-19	11533	7	2	12	8
O=C1C(Cl)=C(N2CCCC2)C(=O)N1c1ccccc1F	3.0	-37	4005	5	1	14	1
COc1ccccc1NS(=O)(=O)c1cccc(C(=O)N/N=C/c2cn(-c3ccccc3)nc2-c2ccccc2)c1	.	-28	2144	.	.	.	9
CC(=O)Nc1ccc(NC(=O)CSc2nc3[nH]ncc3c(=O)n2-c2ccccc2)cc1	-1.4	-8	4754	0	7	-6	-7
CCOC(=O)CSc1nc(Cc2ccccc2)nc2ccccc12	4.4	-11	4452	6	2	8	7
COc1ccc(NC(=S)NCCc2ccccc2OC)c(OC)c1	1.1	-21	16398*	6	-1	-4	-10
N=c1c(C(=O)NCC2CCCO2)cc2c(=O)n3ccccc3nc2n1C1CCCCC1 (stereo unspecified)	-2.5	3	3700	9	-5	5	15
O=C(c1cc(COc2ccc(F)c(F)c2)on1)N1CCN(C/C=C/c2ccccc2)CC1	-1.9	-16	5735	-13	9	17	-1

Quoted at random: 2 entries already listed
SMILES	Sa RN4220 lethal	PrP UTR inh	Autofluor counter	Sa ugtP lethal	Mtb hypoxia rep	Mtb hypoxia rep growth	BJeLR viability
O=C(c1cc(COc2ccc(F)c(F)c2)on1)N1CCN(C/C=C/c2ccccc2)CC1	-1.9	-16	5735	-13	9	17	-1
COCCNC(=O)/C(C#N)=C/c1ccc(OCc2ccccc2)cc1	7.8	-43	5142	-4	9	0	-5

3 entries already listed, arranged by molecular weight, rising.
SMILES	Sa RN4220 lethal	PrP UTR inh	Autofluor counter	Sa ugtP lethal	Mtb hypoxia rep	Mtb hypoxia rep growth	BJeLR viability
CN(c1ccccc1)S(=O)(=O)c1ccc(NC(=S)Nc2ccccc2)cc1	1.6	-49	9842	-14	0	6	-2
COc1cc2c(C(=O)OCCN(C)C)c(CSc3ccccc3)n(C)c2cc1Br	-11	-20	4035	3	13	10	-3
CCOC(=O)C1=C(c2ccccc2)N=c2sc(=Cc3cccc(O)c3)c(=O)n2C1c1cccs1 (stereo unspecified)	-9.9	.	.	15	2	0	.

The listing picks up with the 2 entries that preceded the break.
SMILES	Sa RN4220 lethal	PrP UTR inh	Autofluor counter	Sa ugtP lethal	Mtb hypoxia rep	Mtb hypoxia rep growth	BJeLR viability
N=c1c(C(=O)NCC2CCCO2)cc2c(=O)n3ccccc3nc2n1C1CCCCC1 (stereo unspecified)	-2.5	3	3700	9	-5	5	15
O=C(c1cc(COc2ccc(F)c(F)c2)on1)N1CCN(C/C=C/c2ccccc2)CC1	-1.9	-16	5735	-13	9	17	-1
CC(C)C(NC(=O)c1cccs1)c1nnc(SCC(=O)Nc2nccs2)n1C (stereo unspecified)	3.5	-14	21406*	4	3	7	3
CC(C)(C)C(=O)OCc1nc(-c2ccc(O)c(O)c2)cs1	2.6	-12	.	8	-1	-63	5
O=C1[C@H]2[C@H](C=CC[C@H]2C(=O)N2CCOCC2)CCN1Cc1ccccc1	.	5	3421	.	.	.	7
NS(=O)(=O)c1ccc(CNC(=O)c2cc(-c3ccccn3)nc3ccc(Cl)cc23)cc1	8.9	-21	4454	0	0	3	-4
CCOc1ccc(NS(=O)(=O)c2ccc(C(=O)NCC(c3ccc(OC)cc3)N3CCOCC3)cc2)cc1 (stereo unspecified)	-0.8	-11	?	5	-2	2	2
Cc1nc(NC(=O)CN2CCOCC2)sc1-c1ccccc1	-4.7	-60	2878	-7	11	14	0
O=C(c1cnn2c(C(F)(F)F)cc(-c3ccccc3)nc12)N1CCCc2ccccc21	1.8	.	10924	5	5	-4	-3
O=C(COC(=O)C(c1ccccc1)c1ccccc1)NCc1ccco1	3.6	2	2527	11	12	2	-3
Cc1cccc(CCNC(=O)c2cc(S(=O)(=O)N3CCCCC3)c[nH]2)c1	0.2	-32	5402	11	9	3	12
O=C(NC1CCCCC1)C(c1c(F)cccc1Cl)N(C(=O)c1csnn1)C1CC1 (stereo unspecified)	1.3	-27	3550	5	4	-2	3
O=C(Nc1ccc(Cc2ccncc2)cc1)c1ccc(Br)o1	2.2	-9	2944	5	.	.	-3
C/C=C/c1ccc(OCCCCN2CCN(CC)CC2)c(OC)c1	1.0	-34	4568	12	5	2	1
Cc1cccnc1NC(=O)Nc1ccccc1	-1.3	-2	5425	-4	-2	7	9
COc1ccc(OC)c2c(C)cc(C)nc12	-2.6	-26	1983	-6	-7	11	-5
COc1ccc(OC)c(CCNC(=O)CC2Oc3ccccc3NC2=O)c1 (stereo unspecified)	-1.0	-35	5451	4	.	.	-5
COc1ccccc1-c1cc2ccccc2[nH]1	7.5	-58	11125	-6	10	2	-7
Cc1cc(C)c(N=Cc2c(O)c3ccccc3oc2=O)c(C)c1	1.7	-37	4286	4	16	6	-10
CCc1[nH]nc2c1C1(C(=O)N(Cc3ccccc3)c3ccccc31)C(C#N)=C(N)O2 (stereo unspecified)	17	-17	5898	-11	7	2	-3
CC[C@@]12C(=O)N(c3ccccc3)C(=O)N1C(c1ccc(OC)cc1)C1C(=O)N(C(C)(C)C)C(=O)C12 (stereo partly specified)	2.3	.	.	1	-2	8	.
COc1cc(C2Nc3cc(C)c(C)cc3NC3=C2C(=O)CC(C)(C)C3)ccc1OC(C)=O (stereo unspecified)	1.3	-26	3802	1	-14	3	1
COc1cccc(C(=O)NCc2ccccc2OC)c1	18	-22	8809	6	10	4	-3
CCN(CC)c1ccc2cc(C#N)c(=O)oc2c1	1.5	-5	4602	2	-6	0	2
CC1CC(C)CN(C(=O)CSc2nc(N)cc(=O)[nH]2)C1 (stereo unspecified)	6.9	-23	4600	12	3	-9	4
Cc1cccn2c(=O)c(/C=N/O)c(N3CCOCC3)nc12	.	-12	4653	.	.	.	5
C[C@]12c3[nH]c4ccccc4c3CCN1C(=O)C(CC(=O)NCc1cccc(C(F)(F)F)c1)C[C@@H]2C(=O)N1CCCCC1 (stereo partly specified)	-3.9	1	4008	-21	-4	0	.
CC1(C)OC(C(N)=O)C(C(N)=O)O1 (stereo unspecified)	7.1	-16	9316	7	12	13	-11
O=C(NCCC1CCCCN1S(=O)(=O)c1ccc(F)cc1)C(=O)NCc1ccncc1 (stereo unspecified)	4.3	-1	4935	15	6	-3	0
C/C(=N\NC(=S)NC(C)C)c1cccc([N+](=O)[O-])c1	.	-30	2133	.	.	.	-8
COc1ccc(Cl)cc1S(=O)(=O)NC1CC(C)(C)NC(C)(C)C1	-1.5	-4	5100	0	2	6	9
CCCCOc1ccc(C(=O)N2CCN(c3ccc(N4CCOCC4)nn3)CC2)cc1	4.8	4	?	5	1	10	4
O=C(CN1C(=O)NC2(CCc3ccccc32)C1=O)c1ccc(F)cc1 (stereo unspecified)	1.8	-12	5282	0	-4	8	-5
CCCc1[nH]n(-c2ccc([N+](=O)[O-])cc2)c(=O)c1C(C)=NCc1ccncc1	1.5	-9	4626	3	11	4	18
FC(F)Oc1ccc(NC(=S)NCCc2ccccn2)cc1	5.8	-12	4025	1	13	9	1
CCOc1ccc(C2CC(c3cccc(OC)c3)Nc3nc(N)nn32)cc1 (stereo unspecified)	-3.6	-9	4637	4	.	.	0
O=c1cc(C(F)(F)F)c2sc(N3CCCCC3)nc2[nH]1	5.3	-15	4673	-8	.	.	6
O=C(Nc1c(C(=O)c2ccccc2)oc2ccccc12)c1cc(-c2ccccc2O)n[nH]1	.	-23	2463	.	.	.	-2
Cc1ccc(OCCCNCCO)c(Br)c1	1.7	-13	5152	5	.	.	23
O=c1c(C(c2ccc(Br)cc2)c2c(O)nc3n(c2=O)CCCS3)c(O)nc2n1CCCS2	1.6	-21	.	8	-2	-2	-13
CC(C)/C=C(/C(=O)c1ccc(Cl)cc1Cl)n1cncn1	-1.2	-10	3471	-5	11	-2	2
COc1cc(NC(=O)CN2C(=O)c3ccccc3S2(=O)=O)cc(OC)c1	7.1	-19	3765	4	11	6	.
O=C(Cc1ccccc1)N1CCc2ccccc21	0.8	-19	9110	3	14	2	-3
Oc1c(Br)cc(/C=N/n2c(-c3ccccc3)n[nH]c2=S)c(O)c1Br	.	2	2955	.	.	.	3
COC(=O)c1cn(C(=O)c2cccc(C)c2)c2ccccc12	2.0	-6	4437	9	-10	0	10
CC(C)=CC(=O)Nc1nnc(-c2ccccc2)s1	6.6	-112	5680	3	8	4	1
O=C(CCSc1ccc(Cl)cc1)NCc1ccccn1	1.3	-20	4187	4	-4	3	-5
Cc1ccc(C(=O)Nc2ccon2)cc1S(=O)(=O)N1CCOCC1	2.1	-25	10773	3	6	18	3
Cc1ccc([N+](=O)[O-])cc1NC(=O)CN(C)CCOc1ccccc1	4.4	-13	3678	6	8	6	-6
Cc1cc(NC2CCCC2)n2nc(C)c(-c3ccccc3)c2n1	0.0	-27	4046	-3	0	3	-2
NC(=S)N/N=C1\CCSc2ccc(Cl)cc21	.	-18	4255	.	.	.	-16
CS(=O)(=O)c1cnc2c(-c3ccsc3)cnn2c1N	5.1	-20	3414	3	-7	-6	8
O=[N+]([O-])c1ccc(C=NN2CCN(Cc3ccccc3)CC2)cc1	3.0	.	.	4	4	1	.
COc1ccc(CN(C(=O)c2snc(C(N)=O)c2N)C(C(=O)NC(C)(C)C)c2ccco2)cc1 (stereo unspecified)	0.7	-16	21460*	1	8	10	0
CCCc1cc(=O)n2[nH]c(-c3cccc(Br)c3)cc2n1	16	-58	3079	-9	-3	5	3
CC(C)Cn1nc(NC(=O)C(C)(C)C)c2cc3ccccc3nc21	0.7	-12	7060	-1	2	4	2
CCCc1cc(=O)[nH]c(SCC(=O)Nc2ccc(Br)cc2Br)n1	13	-24	4087	-10	12	1	14
CC(C)(C)C(=O)NC(Nc1cccc2cccnc12)C(Cl)(Cl)Cl (stereo unspecified)	19	-21	2526	1	4	7	3
O=C(CSc1nc2ccccc2c(=O)n1-c1ccccc1)c1cccc([N+](=O)[O-])c1	-0.9	-16	5913	7	13	2	12
COc1ccccc1C(=O)NCCNC(=O)c1ccc(C)nc1	2.3	-12	5407	7	-5	9	-4
C=CCn1c(-c2cccn(Cc3cccc(Cl)c3)c2=O)n[nH]c1=S	5.9	-24	4388	3	1	3	-17
O=C(Nc1cccnc1)Nc1ccc(Br)cc1Cl	1.1	-1	16594*	13	6	8	8
Continuation.
SMILES	Sa RN4220 lethal	PrP UTR inh	Autofluor counter	Sa ugtP lethal	Mtb hypoxia rep	Mtb hypoxia rep growth	BJeLR viability
COC(=O)c1ccccc1NC(=O)Nc1nnc(N2CCCCC2C)s1 (stereo unspecified)	0.9	-21	4165	-3	6	-5	-2
CC1C(c2ccccc2)=[N+]([O-])C2(CCCC2)N1O (stereo unspecified)	3.2	-12	4353	4	3	-3	-2
COc1ccc(-n2c(SCC(=O)Nc3cc(C(=O)O)ccc3C)nc3ccccc3c2=O)cc1Cl	1.4	-6	4688	-1	-2	-6	7
CC1CCCCN1Cc1nc2c(c(=O)n(C)c(=O)n2C)n1CCCc1ccccc1 (stereo unspecified)	3.1	8	3959	7	.	.	9
